rRNA inh HTS: inhibitors of bacterial rRNA selective over humanized ribosomes; E. coli WT GFP vs humanized-ribosome RFP mutants, fluorescence, 24 h; active compounds read low; DMSO median 0, no signal -100; GFP signal change (wild-type ribosome), % (concentration not given with the values); 350,000 tested, 1.6% active;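 active = significant combined selectivity score with lowered wild-type GFP, culture density cut under 30%, mutant RFP and density less affected; inactive = any of these conditions unmet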; note: one replicate is shown; some compounds called inactive have numbers as strong as hits
Vif A3G: HIV-1 Vif–A3G interaction blockers – biochemical, TR-FRET, GST-Vif 1-94, biotin-A3G peptide, dose response retest, primary screen (AID 1117319). TR-FRET GST-Vif / biotin-A3G peptide binding; higher % means a stronger effect; test concentration not given here; strong numbers were not always called active. inhibition, %, or IC50 in µM where a hit was titrated. 260,000 tested, 0.57% active;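 active = above the screen mean plus three standard deviations and confirmed in dose response; inconclusive = results disagree or hit not tested in dose response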;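 note: Vif residues 1-94 fused to GST binding biotinylated APOBEC3G peptide 110-148; 0% = full assay without inhibitor and 100% = GST in place of GST-Vif; retest series ran down from 100 µM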
RanGTP-Impb inh: inhibitors of RanGTP-importin-beta interaction, primary screen, biochemical, FRET, CFP-Ran, YFP-importin-beta, homogeneous. 300,000 tested, 1.1% active. cell-free CFP-Ran/YFP-importin-beta FRET ratio. inhibition, % (no concentration beside the values);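 active = most replicates above 15%; inconclusive = exactly half above 15%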;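 note: 0% = DMSO wells and 100% = Ran loaded with GDP instead of GTP; wells of about 40 µL received 100 nL stock; the first replicate is given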
MLL AF4-AF9 inh: inhibitors of human MLL-AF4/AF9 interaction. inhibition, % at 10 µM. 350,000 tested, 0.47% active. P42568. AlphaScreen, biotin-AF4 peptide binding to FLAG-AF9;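 active = every replicate reaching a set inhibition limit, whatever the replicate mean, cut at about 25% in these data; inconclusive = mean inhibition reaches that limit but some replicates miss it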;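 note: 0% = plate neutral control median and 100% = total signal loss; the record names both 10 and 1 µM as test concentration; the first replicate is given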
Target sequence (P42568 whole entry, looked up): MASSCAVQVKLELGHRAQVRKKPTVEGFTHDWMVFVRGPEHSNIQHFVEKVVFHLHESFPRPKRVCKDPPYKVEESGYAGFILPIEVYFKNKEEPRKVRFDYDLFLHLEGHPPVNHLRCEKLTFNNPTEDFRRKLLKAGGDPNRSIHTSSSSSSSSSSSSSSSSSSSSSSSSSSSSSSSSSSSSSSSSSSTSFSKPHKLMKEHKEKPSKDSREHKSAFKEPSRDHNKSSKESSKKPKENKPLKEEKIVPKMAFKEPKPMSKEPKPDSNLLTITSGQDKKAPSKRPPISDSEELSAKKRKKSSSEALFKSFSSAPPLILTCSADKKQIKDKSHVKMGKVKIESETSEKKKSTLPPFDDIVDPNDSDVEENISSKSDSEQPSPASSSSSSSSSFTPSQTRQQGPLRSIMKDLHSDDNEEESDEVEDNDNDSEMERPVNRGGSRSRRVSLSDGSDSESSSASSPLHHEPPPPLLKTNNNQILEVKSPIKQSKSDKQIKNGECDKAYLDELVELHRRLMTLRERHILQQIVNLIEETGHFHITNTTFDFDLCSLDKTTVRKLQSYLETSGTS
Beta apoptosis: beta cell apoptosis inhibition; INS-1E cytokine-induced death, ATP luminescence, 48 h; percent of positive-control rescue, neutral wells zero; protection from apoptosis, % (concentration not given with the values); 300,000 tested, 0.8% active;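 active = all replicates at 75% or more, or half of them and the mean; inconclusive = half reach 75% but not the mean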;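 note: 0% = cytokine-treated negative control wells and 100% = positive control rescue; higher means more ATP so stronger rescue from cytokine killing; wells of about 40 µL received 100 nL stock; the first replicate is given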
Bfl-1 A1 inh: inhibitors of the anti-apoptotic protein A1, read as caspase activation; 330,000 tested, 0.066% active; caspase activation, % (test concentration not listed); MEF A1-2A-BIM cells, Caspase-Glo 3/7 luminescence, 3 h; percent of clofoctol response, vehicle zero;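 active = over half of replicate activation scores above 10%, or exactly half above 10 with the replicate mean above 10; inconclusive = replicate mean below 10 yet half the replicates above 10; inactive = over half of replicates below 10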;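 note: wells of about 30 µL received 50 nL stock; many hits fall short of the cut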
Calb FLC: affects C. albicans growth with fluconazole; growth inhibition, % (no concentration beside the values); C. albicans CaCi-2 (fluconazole-resistant clinical isolate) + fluconazole, Alamar Blue growth, 48 h; AID 1979; 300,000 tested, 0.57% active;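 active = most replicates above 75%; inconclusive = exactly half above 75%; inactive = most below 75%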;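 note: all wells also contain fluconazole at 8 µg/ml as a sub-toxic cotreatment; 0% = median of DMSO wells and 100% = median of geldanamycin control wells; wells of about 8 µL received 7.5 nL stock; the first replicate is given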
T cruzi inh: blocks replication of Trypanosoma cruzi. 300,000 tested, 1.4% active. T. cruzi beta-gal in NIH3T3, luminescence, 90 h. AID 1885. inhibition, % (concentration not given with the values);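 active = mean inhibition across valid replicates above about 55%, limit read from the data; inconclusive = mean below that limit but half or more replicates reach it; inactive = mean below it, under half of replicates reach it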;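 note: signal also drops with host cell toxicity which is not excluded here; 0% = plate median of DMSO wells and 100% = zero luminescence signal; higher percent means less beta-gal luminescence so fewer parasites; stock transfer was 50 nL into about 50 µL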
rRNA inh HTS OD600: recorded beside rRNA inh HTS, whose call it bears; OD600 change, %; measured here: OD600 growth;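 optical density of the mix in the first replicate; 0 = DMSO median and -100 = no signal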
rRNA inh HTS RFP: also measured in rRNA inh HTS; calls as there; RFP signal change, %; measured here: RFP humanized mutant strains;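 first replicate; 0 = DMSO median and -100 = no signal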
An asterisk follows results filed as active; ? = inconclusive; . = no result given; & = joins results of further samples.

Molecule | rRNA inh HTS | rRNA inh HTS OD600 | rRNA inh HTS RFP | Vif A3G | RanGTP-Impb inh | MLL AF4-AF9 inh | Beta apoptosis | Bfl-1 A1 inh | Calb FLC | T cruzi inh
CCc1cc(Cn2nc(-c3ccccc3)cc2C(=O)NCc2cccs2)on1 | -9 | -16 | -4.7 | . | . | -2.5 | 4 | -0.3 | . | .
CCOC(=O)C(=O)N/N=C(/c1ccccc1)c1ccc(OC)cc1 | 7 | -6 | -0.2 | 18% | 5.5 | 1.1 | -1 | 0.9 | -1 | -13
C=CCn1c(SCC(=O)NCc2ccco2)nc2sc3c(c2c1=O)CCC3 | . | . | . | 1% | -2.8 | . | -4 | 0.2 | 1 | 8
CCc1cccc(NC(=O)CCS(=O)(=O)c2cc3c(cc2C)NC(=O)CO3)c1 | -11 | 1 | -5.9 | . | -1.4 | 6.7 | -6 | 1.0 | -8 | 0
Cc1cccc(N(C(=O)c2csnn2)C(C(=O)NC(C)(C)C)c2cccnc2)c1 (stereo unspecified) | 4 | 8 | 1.0 | -14% | 2.1 | -1.1 | -2 | 0.5 | 4 | -10
Cc1nn(C)c(Oc2ccccc2)c1CCNS(=O)(=O)c1ccc(Cl)cc1 | . | . | . | -5% | 1.0 | . | 2 | 1.1 | 21 | 14
CCOn1c(=O)c(-c2cccc3ccccc23)[n+]([O-])c2ccccc21 | 3 | -1 | 2.6 | -1% | -2.4 | 4.8 | -1 | 1.0 | -1 | -8
COc1cc2c3nnc(-c4ccc(F)cc4)c-3cn(Cc3cccc(C)c3)c2cc1OC | 26 | -2 | 1.4 | ? | -152 | -2.7 | 23 | 0.3 | -4 | 7
CCOc1ccccc1N(CC(=O)NCc1ccncc1)S(=O)(=O)c1ccccc1 | -1 | -6 | -1.5 | -6% | 1.8 | 0.7 | -3 | -0.6 | -3 | -3
O=C(/C=C/c1c(F)cccc1Cl)NCc1ccc2c(c1)OCO2 | 3 | 14 | 0.2 | . | 1.2 | 0.7 | . | -0.2 | -10 | 5
CNc1nc(Sc2cccc(C(F)(F)F)c2)cc(C(F)(F)F)n1 | -2 | 9 | -2.9 | 80% | -5.3 | . | 1 | -0.1 | 7 | -1
N/C(=N\OC(=O)C1CC1)c1ccc([N+](=O)[O-])s1 | -55* | 15* | -8.9* | -8% | 0.4 | -1.2 | -2 | -1.1 | -2 | 31

Just Calb FLC and Beta apoptosis, for 5 of the compounds above:
molecule	Calb FLC	Beta apoptosis
Cc1cccc(N(C(=O)c2csnn2)C(C(=O)NC(C)(C)C)c2cccnc2)c1 (stereo unspecified)	4	-2
Cc1nn(C)c(Oc2ccccc2)c1CCNS(=O)(=O)c1ccc(Cl)cc1	21	2
CCOn1c(=O)c(-c2cccc3ccccc23)[n+]([O-])c2ccccc21	-1	-1
CCc1cc(Cn2nc(-c3ccccc3)cc2C(=O)NCc2cccs2)on1	.	4
CCOc1ccccc1N(CC(=O)NCc1ccncc1)S(=O)(=O)c1ccccc1	-3	-3

(list continues)
Molecule | rRNA inh HTS | rRNA inh HTS OD600 | rRNA inh HTS RFP | Vif A3G | RanGTP-Impb inh | MLL AF4-AF9 inh | Beta apoptosis | Bfl-1 A1 inh | Calb FLC | T cruzi inh
CC(=O)Nc1ccc(N2CCCCC2)cc1 | . | . | . | 7% | -1.2 | . | -8 | -0.1 | -5 | 12
O=C(COc1ccc2cc(Br)ccc2c1)N1CCCC1 | -8 | -25 | -5.6 | . | 5.5 | -1.0 | -2 | 0.2 | 52 | 17
CCCCc1[nH]nc2c1C1(C(=O)N(CC)c3ccccc31)C(C#N)=C(N)O2 (stereo unspecified) | . | . | . | -3% | 5.8 | . | -6 | -1.1 | 9 | -9
CCOc1ccccc1N(CC(=O)O)S(=O)(=O)c1ccc(C)cc1 | . | . | . | ? | 1.0 | . | -2 | -1.0 | 0 | 6
CCn1nc(C(=O)NCC(c2cccs2)N2CCOCC2)c2ccccc2c1=O (stereo unspecified) | 3 | 2 | 2.6 | . | -3.3 | 0.8 | 1 | 0.1 | 6 | 3
Cc1cccc(C)c1OCC(=O)Nc1ccc2c(c1)C(=O)NC2=O | 10 | 15 | -0.2 | 1% | 7.4 | 0.9 | -7 | -0.1 | 6 | -8
Nc1ccc2nc(SCC(=O)N3CCN(c4ccccc4)CC3)sc2c1 | -12 | 4 | 12 | 6% | 5.2 | 2.6 | -6 | -0.5 | ? | 15
O=C(NCc1ccc(-c2csnn2)cc1)c1cc(Cl)cc(Cl)c1 | 10 | 3 | 1.7 | 6% | ? | -2.0 | 2 | -1.2 | 4 | 11
COc1ccc(N(CC(=O)NCc2ccco2)S(=O)(=O)c2ccc(C)cc2)cc1 | . | . | . | 11% | 0.5 | . | -2 | -0.1 | ? | -26
COc1ccccc1-c1cc(-c2ccccc2)nc(=O)[nH]1 | -6 | -1 | 2.4 | -1% | -0.6 | -1.4 | -3 | 0.2 | 9 | -7
Clc1cccc(CN2CCSCC2)c1Cl | 11 | 5 | 1.1 | 0% | -0.9 | -1.3 | 2 | 0.7 | -29 | -1
C/C(=N\NC(=O)c1ccc(CSc2cccc3cccnc23)cc1)C1CCCCC1 | 2 | 17 | 17 | -8% | -2.0 | -2.9 | 0 | -0.9 | 17 | -40
CC(=O)NS(=O)(=O)c1ccc(N2C(=O)c3ccccc3C2=O)cc1 | -6 | 8 | 3.0 | . | 20* | -2.1 | -4 | 0.8 | -1 | 2
Nc1c(C(=O)CSc2ccccn2)c(=O)[nH]c(=O)n1C1CC1 | 4 | 11 | -0.5 | 2% | . | -0.7 | 2 | 0.6 | . | .
COc1ccc(S(=O)(=O)N(C)CC(=O)NC2CCCC2)cc1OC | 10 | 9 | 4.2 | 6% | -0.5 | 0.0 | 2 | 0.8 | 2 | 9
O=C(c1cc(-c2ccc3c(c2)OCO3)on1)N1CCCCC1 | 0 | -4 | -0.8 | . | 0.4 | 0.1 | -9 | -5.8 | -22 | -14
CC1(C)CC(=O)c2cc(OCC(=O)NCCN3CCCc4ccccc43)ccc2O1 | . | . | . | -2% | 2.6 | . | -7 | 1.1 | -1 | -24
COC(=O)N1CN(C(=O)OC)CN(C(=O)OC)C1 | . | . | . | -3% | 1.6 | . | 3 | -0.6 | 0 | 6
COc1ccc(S(=O)(=O)Nc2cccc(C)n2)c2ccccc12 | . | . | . | ? | -3.2 | . | -2 | -0.8 | 1 | -6
O=C(N=Nc1c(O)[nH]c2ccc(Cl)cc12)c1cc(-c2cccs2)nc2ccccc12 | . | . | . | -7% | 9.0 | . | 26 | 0.3 | -13 | 22
CCOC(=O)C1CCCN(C(=O)Cn2nc(C)c3c(C)n(-c4ccccc4)nc3c2=O)C1 (stereo unspecified) | 1 | -2 | -1.5 | 1% | 3.6 | -5.3 | -7 | 1.7 | -3 | -4
O=C(c1ccco1)N1CCN(C(=O)C2CCCO2)CC1 (stereo unspecified) | . | . | . | 20% | 1.5 | . | -4 | 0.5 | -4 | 0
O=C(CCc1ccccc1)N=C1SC2CS(=O)(=O)CC2N1c1ccccc1F (stereo unspecified) | 1 | -11 | -1.4 | -2% | 3.1 | 0.2 | -4 | -0.8 | . | 9
CC(C)(C)C(=O)Nc1ccc(F)cc1[N+](=O)[O-] | 9 | 16 | -1.0 | -11% | 4.0 | -2.3 | -3 | 0.1 | 39 | -18
CC(C)Sc1nc(SCC(=O)NCc2ccco2)c2c3c(sc2n1)COC(C)(C)C3 | . | . | . | -36% | 0.0 | . | 14 | 0.0 | 4 | 25
O=C1CC(c2ccc(OCCCCCOc3ccc(C4CC(=O)NC4=O)cc3)cc2)C(=O)N1 (stereo unspecified) | -32 | -35 | -7.1 | 5% | 1.1 | -5.8 | 11 | -0.4 | 9 | -4
COc1ccccc1CNC(=O)CCn1c(=O)sc2ccccc21 | . | . | . | -3% | 8.1 | . | . | 0.2 | 2 | 3
COCCCn1cc(C(=O)c2cc(OC)ccc2OCC(=O)N2CCCCC2C)cc(C#N)c1=O (stereo unspecified) | 2 | -3 | 4.6 | -9% | -1.5 | -1.4 | -2 | 3.6 | 23 | 14
CCCCCOC(=O)C1=C(C)NC(=O)NC1c1ccc([N+](=O)[O-])cc1 (stereo unspecified) | 4 | 4 | -0.4 | 6% | 2.9 | 0.2 | 0 | 1.0 | 13 | 1
Oc1ccc(NC(=S)Nc2ccccc2)cc1 | 13&3 | 5&4 | 1.0&1.2 | 11%&13% | -0.5&-0.4 | 0.3&-18 | -9 | 1.8&-0.3 | 22 | -8&-16
O=C(NC1CC1)C1=C[C@@H](c2ccc(Br)cc2)C[C@@H](OCc2ccc(CO)cc2)O1 | -5 | -15 | -16 | 9% | 0.0 | 2.2 | 8 | 0.6 | 4 | -4
Cc1nc(S/C(=C/c2ccc(-c3ccc(Cl)cc3)o2)C(=O)O)n[nH]1 | . | . | . | 12% | -12 | . | -3 | -0.4 | -3 | 5
Cc1ccccc1-n1c(SCC(=O)NCC2CCCO2)nnc1-c1ccncc1 (stereo unspecified) | 12 | 12 | 4.2 | 9% | . | 0.7 | -3 | -0.6 | . | .
COc1ccccc1NC(=O)NCC(=O)Nc1ccc(F)c(F)c1 | . | . | . | -4% | ? | . | -3 | -0.1 | -2 | 9
O=C1NC2=C(C(=O)OC2)C(c2ccc(OC(F)(F)F)cc2)N1 (stereo unspecified) | -13 | -4 | -2.8 | 7% | 5.8 | -18 | -4 | -0.1 | 16 | -3
O=C(c1ccccc1-c1nc2ccccc2[nH]1)N1CCOCC1 | . | . | . | -5% | 1.8 | . | -2 | 0.4 | -1 | -10
CCC(C)(C)NC(=O)C(c1sccc1C)N(Cc1ccco1)C(=O)c1csnn1 (stereo unspecified) | 0 | -15 | 1.5 | . | 2.7 | 2.0 | 0 | -0.2 | -6 | 9
CC(=O)NC(Cc1cccc(F)c1)C(=O)NC1CCN(C(=O)Nc2ccccc2)CC1 (stereo unspecified) | 3 | 4 | -0.3 | . | -0.4 | -1.3 | -8 | 0.6 | -5 | -2
CN(C)CC(=O)Nc1ccc(Oc2ccc(Cl)cc2)cc1 | 1 | -5 | 1.5 | 7% | 3.5 | 0.0 | -8 | -0.2 | -33 | 7

Screens (PubChem)

Some of the compounds tested (hit frequency here may not be typical).
